# Source: PubChem
# ABCG2 block: ABCG2 efflux pump inhibitors, primary screen, multiplex with ABCB1, IgMXP3 cells, flow cytometry | hit rate 0.1% among 190,000 | inhibition, % at 6.6 µM | JC-1 efflux | Broad substrate specificity ATP-binding cassette transporter ABCG2 (Homo sapiens), Q9UNQ0;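 active means inhibition above 80%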;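 further: 0% = DMSO and 100% = nicardipine control wells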
#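 Test system: IgMXP3 (ABCG2) plus far-red-tagged CCRF-Adr (ABCB1) cells / Amount: 3 million cells/mL in well / Reagent: JC-1 transporter substrate / Timing: 10 min compound exposure, 25 °C / Signal: flow cytometry, 530 nm JC-1 signal / Read-out: percent efflux inhibition, scaled nicardipine 100% to DMSO 0% / Benchmarks: nicardipine as high control, DMSO as low control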
# RGS4-Gao reg: modulators of RGS4 binding to Galphao, primary screen, biochemical, multiplexed bead flow cytometry; AID 1415, 2008; actives lie on both sides; hit rate 0.33% among 220,000; binding response (% of control), % at 10 µM; in the data active means binding response below about 49% or above about 150%; inactive means in between;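 further: fluorescent Galphao activated with aluminum fluoride binding bead-coupled RGS4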
# RGS7-Gao reg: RGS7-Galphao binding modulators, primary screen, biochemical, multiplexed bead flow cytometry. Guanine nucleotide-binding protein G(o) subunit alpha (Homo sapiens), P09471. actives lie on both sides. binding response (% of control), % at 10 µM. hit rate 0.35% among 220,000. AID 1439, 2008; in the data active means binding response below about 49% or above about 150%; inconclusive means no clear call, values can overlap the other calls; inactive means in between;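 further: fluorescent Galphao held in activated GDP-AlF4 state binding bead-coupled RGS7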
# ABCB1 inh: ABCB1 efflux pump inhibitors, primary screen, cell-based, multiplex, flow cytometry, ABCG2 counter-screen; ATP-dependent translocase ABCB1 (Homo sapiens), P08183; CCRF-Adr cells, JC-1 efflux; inhibition, % at 6.6 µM; hit rate 0.067% among 190,000; AID 1326, 2008; in the data active means inhibition above about 40%;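 further: 0% = vehicle and 100% = reference inhibitor; higher value means more JC-1 retained so stronger ABCB1 efflux block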
# RGS8-Gao: RGS8-Galphao binding modulators, primary screen, biochemical, multiplexed bead flow cytometry; Guanine nucleotide-binding protein G(o) subunit alpha (Homo sapiens), P09471; actives lie on both sides; response (percent of control binding), % at 10 µM; hit rate 0.34% among 220,000; in the data active means response below about 60% or above about 140%; inactive means in between;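 further: Galphao activated as the GDP aluminium fluoride complex binding bead-coupled RGS8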
# Numbers without * were called inactive; u = inconclusive. Some of the compounds tested, so the mix of outcomes need not match the whole.
# Each structure is followed by: ABCG2 block	RGS4-Gao reg	RGS7-Gao reg	ABCB1 inh	RGS8-Gao
(1) COc1ccc2[nH]c(C)c(C(=O)CN3CCN(C/C=C/c4ccccc4)CC3)c2c1
→ 8	105	103	-0.6	101
(2) COc1ccc(OC)c(-n2c(-c3cc(-c4ccccc4)n[nH]3)n[nH]c2=S)c1
→ -6	101	102	-1.7	78
(3) COc1ccc(OCC(=O)Nc2cccc(OC)c2)cc1
→ 4	102	106	0.3	102
(4) O=C1CN(CC(=O)Nc2cccc(Cl)c2Cl)c2ccccc2N1
→ 0	100	101	-0.1	94
(5) O=C(c1ccccc1)N1CCn2c(nc3ccccc32)C1
→ 1	100	100	0.7	100
(6) CCCCCCCC(=O)N/N=C(/C)c1c(O)cc(C)oc1=O
→ 2	100	98	0.3	98
(7) O=C(OCc1ccco1)c1cccnc1
→ 12	102	104	1.3	106
(8) CC(=O)c1cc(C#N)c(N2CCCCC2)nc1C
→ 6	101	u	0.0	100
(9) CCc1nc(NCC2CCCN2CC)c2nnn(Cc3ccccc3F)c2n1 (stereo not given)
→ 1	98	97	0.5	97
(10) COc1ccccc1NC(=O)CN1CCC(n2c(C)nc3cc(F)ccc32)CC1
→ 7	102	98	3.2	102

# Grouped by structure: the compounds so far with four or more nitrogen atoms
# Each structure is followed by: ABCG2 block	RGS4-Gao reg	RGS7-Gao reg	ABCB1 inh	RGS8-Gao
(2) COc1ccc(OC)c(-n2c(-c3cc(-c4ccccc4)n[nH]3)n[nH]c2=S)c1
→ -6	101	102	-1.7	78
(9) CCc1nc(NCC2CCCN2CC)c2nnn(Cc3ccccc3F)c2n1 (stereo not given)
→ 1	98	97	0.5	97
(10) COc1ccccc1NC(=O)CN1CCC(n2c(C)nc3cc(F)ccc32)CC1
→ 7	102	98	3.2	102

# Compound profiles, as listed above:
# COc1ccc(OC)c(-n2c(-c3cc(-c4ccccc4)n[nH]3)n[nH]c2=S)c1 across the screens: ABCG2 block: -6; RGS4-Gao reg: 101; RGS7-Gao reg: 102; ABCB1 inh: -1.7; RGS8-Gao: 78
# CCc1nc(NCC2CCCN2CC)c2nnn(Cc3ccccc3F)c2n1 (stereo not given) across the screens: ABCG2 block: 1; RGS4-Gao reg: 98; RGS7-Gao reg: 97; ABCB1 inh: 0.5; RGS8-Gao: 97
# COc1ccc(OCC(=O)Nc2cccc(OC)c2)cc1 across the screens: ABCG2 block: 4; RGS4-Gao reg: 102; RGS7-Gao reg: 106; ABCB1 inh: 0.3; RGS8-Gao: 102

# Next structures follow.
# Each structure is followed by: ABCG2 block	RGS4-Gao reg	RGS7-Gao reg	ABCB1 inh	RGS8-Gao
(11) N#CC(C#N)=C(Nc1ccc(F)cc1)SCc1cccc(F)c1
→ 11	104	103	-0.2	108
(12) COc1cc(/C=N/NC(N)=S)ccc1OCC(=O)N1CCOCC1
→ 0	104	97	-0.1	103
(13) CCN1C(=O)C(CC(=O)Nc2ccc(F)cc2)N(Cc2ccco2)C1=S (stereo not given)
→ 4	100	u	0.8	101
(14) CCCCN(CC)CCNC(=O)c1nn(-c2ccc(OC)cc2)c(=O)c2c1c1ccccc1n2C
→ 5	101	104	8.1	104
(15) O=C(Nc1ccc2oc(=O)ccc2c1)c1cccnc1Cl
→ 6	98	101	0.3	98
(16) C=CCNc1ncnc2c1cnn2-c1ccc(OC)cc1
→ 2	102	99	0.1	99
(17) C/C=C/C=C/C(=O)OCC(=O)Nc1ccc(Cl)cc1
→ 6	100	u	1.0	100
(18) COc1ccc([N+](=O)[O-])cc1NC(=O)c1ccc(Br)s1
→ 18	95	u	0.5	97
(19) CC1=C(C(=O)Nc2ccccc2)C(c2cccs2)n2nnnc2N1 (stereo not given)
→ 2	103	100	0.8	100
(20) COc1cccc(C(=O)Nc2ccc(C)cc2)c1
→ 3	98	95	0.2	100

# Of the compounds above, these contain a thiophene ring, fused or not.
# Each structure is followed by: ABCG2 block	RGS4-Gao reg	RGS7-Gao reg	ABCB1 inh	RGS8-Gao
(18) COc1ccc([N+](=O)[O-])cc1NC(=O)c1ccc(Br)s1
→ 18	95	u	0.5	97
(19) CC1=C(C(=O)Nc2ccccc2)C(c2cccs2)n2nnnc2N1 (stereo not given)
→ 2	103	100	0.8	100
